CDC25B CDK2 inh = primary biochemical HTRF screen for blockers of M-phase inducer phosphatase 2 binding to CDK2/cyclin A. HTRF CDC25B-CDK2/CyclinA binding, anti-His/anti-Flag; stronger effect = higher value. z-score (concentration not given with the values). actives 0.72% (n = 94,000);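 also: score is relative to mean and SD of negative controls; strong numbers were not always called active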
HIV TAR-Tat = TAR RNA-Tat peptide displacers, HIV-1, primary screen, biochemical, FRET, FAM/TAMRA-labeled Tat; HIV-1 TAR RNA, Tat peptide displacement FRET; stronger effect = higher value; z-score (no concentration beside the values); actives 0.6% (n = 100,000); AID 1259389, 2018;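 also: score is relative to mean and SD of negative controls; some compounds called inactive have numbers as strong as hits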
* = called active by the depositor; . = no result given.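 The calls were made as follows: active = z-score from 3 up in half or more of its runs; inactive = the rest.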

canonical_smiles | CDC25B CDK2 inh | HIV TAR-Tat
COc1cccc2c1CCC1=CC(=O)CC[C@@]12C | . | 0.82
CC(C)C(C(=O)O)N1C(=O)CSC1=S (configuration not stated) | -0.83 | 1.2
O=C(NCc1ccco1)C1CCCN(c2nnc(N3CCCC3=O)s2)C1 (configuration not stated) | -2.6 | 1.5
Cc1noc(C)c1C(=O)NNC(=O)Nc1cc(C(F)(F)F)cc(C(F)(F)F)c1 | -2 | .
O=S(=O)(c1cnc[nH]1)N1CCN(C(c2ccccc2)c2ccc(Cl)cc2)CC1 (configuration not stated) | 0.54 | 0.91
O=[N+]([O-])c1ccc(C2OCC3(CO)COC(c4ccc([N+](=O)[O-])cc4)N23)cc1 (configuration not stated) | -0.77 | .
Cc1cc(=O)oc2cc(OCc3ccc(C(=O)O)o3)ccc12 | 0.59 | .
Cn1ccc2cc(S(=O)(=O)N3CCN(C(=O)Nc4ccc(Br)cc4F)CC3)ccc21 | . | 1.4
Cn1ccc2cc(S(=O)(=O)N3CCC(C(=O)N4CCN(c5ccccn5)CC4)CC3)ccc21 | . | 0.11
COC(=O)CCC(C)C1CCC2C3CCC4C[C@H](O)CC[C@]4(C)C3C[C@H](O)[C@]12C (some centres not stated) | . | -0.01
CCCCNC(=O)Cn1cnc2nc(SCC)ncc2c1=O | . | 0.21
CCN(CC)S(=O)(=O)c1cccc2cccnc12 | -0.12 | .
CC(C)c1nnc2sc(NC(=O)c3cccs3)nn12 | -0.83 | 1.6
Cn1c(=O)n(Cc2c(F)cccc2Cl)c(=O)c2c1nc1n2CCCN1Cc1ccco1 | -0.89 | .
CCc1ccc(C2C(C(=O)OC)=CNC=C2C(=O)OC)cc1 | 1.8 | .
Cc1cc(C)c(C)c(OCc2nc(-c3ccccc3)no2)c1 | -0.6 | .
O=C(COc1ccc(Br)cc1)Nc1nccs1 | -1.1 | 1.2
C=C1CC2CC(=O)CC(C1)C2 | 0.09 | .
Cn1c(=O)c2c(SCC(=O)Nc3nc4ccccc4s3)nc(C3CC3)nc2n(C)c1=O | . | 0.79
CCC1(CC)Cc2ccccc2C(=O)N1 | -2.5 | 0.63
CCOc1ccc(-c2cn3c(n2)sc2cc(C(=O)O)ccc23)cc1 | -1.5 | 2
CCCN1CNC(=S)N(c2ccc(C)cc2C)C1 | 0.48 | .
CCOc1ccc(-c2noc(CSc3nnc(C)n3-c3ccc(F)cc3)n2)cc1 | -1.6 | 1.5
O=C(O)C(Cc1ccccc1)NS(=O)(=O)c1cccs1 (configuration not stated) | -1.2 | .
O=C(O)c1ccc(Cn2c(SCc3ccccc3)nc3cccnc32)cc1 | 0.8 | 0.69
CCc1nn2c(N)c(C#N)cnc2c1-c1ccc(OC)cc1 | -1.8 | 2.8
CCCCCOc1ccc(C2C(C(=O)OC)=C(C)N=C3SC(C)C(=O)N32)cc1 (configuration not stated) | -1.5 | 0.9
CSC(=Nc1cccc(C(F)(F)F)c1)N1CCCC1 | -0.61 | .
O=C(Cc1cccs1)Nc1cc(F)c2nc(N3CCOCC3)ccc2c1 | . | -2.9
CCOC(=O)C1CCN(S(=O)(=O)c2ccc3c(c2)N(C)C(=O)CC(=O)N3C)CC1 | . | 1.2
O=C(Cn1c(=O)oc2ccccc21)N1CCN(C(=O)c2ccco2)CC1 | -1.1 | .
Cc1nc2sc(C(c3ccccc3)N3CCN(c4ccccc4F)CC3)c(O)n2n1 (configuration not stated) | -0.73 | .
CC(C)Cc1nnc(NC(=O)C2CC(=O)N(CCc3c[nH]c4ccc(Cl)cc34)C2)s1 (configuration not stated) | -0.89 | 0.76
O=C(NNc1c(Cl)cccc1Cl)c1ccc([N+](=O)[O-])o1 | -1 | .
CCCn1c(N2CCN(C)CC2)nc2c1c(=O)[nH]c(=O)n2C | 0.37 | .
O=C1COc2cc(S(=O)(=O)CCC(=O)N3CCCCC3)c(Cl)cc2N1 | . | 4.1
CCc1nn(CC(=O)N2CCC(C)CC2)c(=O)c2cccn12 | -1.2 | 2.3
Cc1ccc(O)c(Nc2cc(C)nc3ncnn23)c1 | -0.21 | .
Nc1nc(N2CCN(Cc3ccccc3)CC2)nc(N2CCOCC2)c1[N+](=O)[O-] | . | 0.21
COc1ccc(OC)c2[nH]c(=O)c(CCNS(=O)(=O)c3ccc(F)cc3)cc12 | -1.1 | .

Five structures out of the list, ordered by heavy-atom count, ascending.
canonical_smiles | CDC25B CDK2 inh | HIV TAR-Tat
CCCN1CNC(=S)N(c2ccc(C)cc2C)C1 | 0.48 | .
CCCn1c(N2CCN(C)CC2)nc2c1c(=O)[nH]c(=O)n2C | 0.37 | .
CCOc1ccc(-c2cn3c(n2)sc2cc(C(=O)O)ccc23)cc1 | -1.5 | 2
CCOc1ccc(-c2noc(CSc3nnc(C)n3-c3ccc(F)cc3)n2)cc1 | -1.6 | 1.5
Cc1nc2sc(C(c3ccccc3)N3CCN(c4ccccc4F)CC3)c(O)n2n1 (configuration not stated) | -0.73 | .

The list goes on:
canonical_smiles | CDC25B CDK2 inh | HIV TAR-Tat
CCCC(=O)n1c(=O)oc2cc(Br)ccc21 | -0.57 | -0.02
Cc1ccc(S(=O)(=O)N2Cc3ccccc3C2)cc1 | -0.03 | .
COCCN(Cc1ccco1)C(=O)c1noc2c1COc1ccccc1-2 | -1.2 | 0.23
Cc1ccn2c(=O)cc(COc3ccc(NC(=O)CCC4CCCC4)cc3)nc2c1 | . | 0.16
CCCSc1nnc2c(n1)OC(C)=Nc1ccc(Br)cc1-2 | 0.65 | 0.36
CCn1cnc(S(=O)(=O)N2CCCC(C(=O)Nc3nc(C)cs3)C2)c1 (configuration not stated) | . | 0.79
CCCNC(=O)c1onc(C)c1Cl | -1.4 | 0.56
CCc1cc(C(=O)NC2CCCC2)no1 | -2.7 | 1
COC(=O)c1cc2c(cc1NC(=O)c1noc3c1CSc1ccccc1-3)OCO2 | -0.62 | 1.2
O=C1CCc2c(ccc3ccccc23)O1 | . | 2
Cc1ccc(C(C)C)c(OC(C)C(=O)N(Cc2ccco2)C2CCS(=O)(=O)C2)c1 (configuration not stated) | -1.8 | 0.22
CCOC(=O)c1c(N)n(-c2cccc(Cl)c2)c2nc3ccccc3nc12 | -1.2 | 3.5
O=C(O)CCCNC1=NCCS1 | -0.88 | 2.6
O=C(CCCN1C(=O)c2ccccc2C1=O)Nc1ccc(-c2ccccc2)cc1 | -0.59 | .
Cc1ccc(Nc2nc3ccccc3n3cnnc23)c(Cl)c1 | 1.2 | -0.21
Cc1nc2sc(C(c3ccc(C(C)C)cc3)N3CCN(C(=O)c4ccco4)CC3)c(O)n2n1 (configuration not stated) | -0.86 | .
O=C(NCc1cccnc1)C(=O)NC1CCCCNC1=O (configuration not stated) | -1.7 | .
CCC(C(N)=O)c1ccccc1 (configuration not stated) | . | -0.9
CCCCN(CC)CCNC(=O)c1[nH]c(C)c(C(C)=O)c1C | -1.6 | .
Cc1cc(C(=O)Nc2cc(C(F)(F)F)ccc2N2CCCC2)n(C)n1 | -0.06 | .
CCOc1ccc2c(c1)C(C)=CC(C)(C)N2C(=O)Nc1ccccc1 | -0.43 | -6.2
CS(=O)(=NS(=O)(=O)c1ccc(Cl)cc1)c1ccccc1 (configuration not stated) | -1.7 | .
COc1ccc(S(=O)(=O)NCCc2csc3nc(-c4ccc(F)cc4)nn23)cc1OC | . | 0.95
Cc1onc(/C=C/N2CCOCC2)c1S(=O)(=O)N(C)c1ccccc1Cl | . | 1.4
Cc1ccc(C(Nc2ccccn2)c2ccc3ccc(C)nc3c2O)cc1 (configuration not stated) | -0.62 | 0.09
CN(C(=O)c1nc(-c2ccncc2)no1)c1ccccc1Cl | . | 0
CCOC(=O)c1sc(N2CCOCC2)nc1C | -0.82 | 0.13
Cc1c(C(=O)N(Cc2ccccc2)C(C)C)cnn1-c1ccccc1 | 0.48 | .
CCCNc1nc(Nc2ccc(C)cc2C)c2cnn(C)c2n1 | . | 1.2
Cc1ccc(C)c(-n2c(=O)c(C#N)cc3c(=O)n4cccc(C)c4nc32)c1 | -1.9 | -0.87
O=c1c2c3c(sc2n2c(=S)[nH]nc2n1Cc1ccccc1)CCC3 | -1.5 | .
CCOC(=O)c1c(S(=O)(=O)Nc2ccc(Cl)cc2)c(C)n(C)c1C | . | 2.6
CN1CCN(CCNC(=O)c2ccc(-n3ccc4ccccc43)s2)CC1 | . | -0.21
C=CC(C)(C)c1cc(/C=C/C(=O)c2ccc(O)cc2)c(OC)cc1O | . | 1.1
COc1ccc2c(c1)O[C@H]1c3ccc(OC)cc3OC[C@@H]21 | . | 14
CCOC(=O)C1=C(C)NC2=C(C(=O)CC(c3ccccc3)C2)C1c1ccccn1 (configuration not stated) | -0.68 | 0.38
O=c1cc2nc(-c3ccccc3Cl)nc(SCc3cc(=O)n4nc(C5CC5)sc4n3)n2[nH]1 | . | -0.63
COc1ccc2c(c1)-c1c(ssc1=Nc1ccc([N+](=O)[O-])cc1OC)C(C)(C)N2 | -5.3 | .
CC(C)c1cc(C2CCCN2C(=O)c2cc(-c3ccc(Br)cc3)on2)no1 (configuration not stated) | . | -0.18
O=C(NCCc1ccc(Cl)cc1)c1cnc2sccn2c1=O | . | 2.4
O=C1CC(c2ccco2)CC2=C1C(c1ccccc1)n1c(nc3ccccc31)N2 (configuration not stated) | -1.5 | 0.39
O=C(c1sc2ccccc2c1Cl)N(Cc1ccco1)C1CCS(=O)(=O)C1 (configuration not stated) | -1 | 1.3
COC(=O)c1ccc(-c2ccco2)n1CC(=O)NC1CCCC1 | . | -0.79
c1ccc(N2CCN(c3nnc(-n4cccc4CNCc4cccnc4)s3)CC2)cc1 | . | 2.1
COc1ccc(-c2nnc3ccc(SCC(N)=O)nn23)cc1 | -2.4 | .
COc1ccc(CN2CCN(Cc3cc(OC)c(OC)c(OC)c3)CC2)cc1Br | 0.13 | .
O=C(O)C1CCN(c2nnc(N3CCCCC3)c3ccccc23)CC1 | -1.2 | 1.6
CC1=C(C(=O)OC2CCCCC2)C(c2coc3ccc(Cl)cc3c2=O)C2=C(CC(C)(C)CC2=O)N1 (configuration not stated) | -0.03 | 1.4
CSc1cccc(NS(=O)(=O)c2ccc3c(c2)NC(=O)CC(=O)N3)c1 | . | 0.19
COc1ccc(C2CC(=O)C3=C(C2)Nc2ccccc2NC3c2ccccc2Cl)cc1OC (configuration not stated) | -1.6 | -1.2
CSc1ccc(C2CC(=O)NC3=C2C(=O)CC(c2cccs2)C3)cc1 (configuration not stated) | 2.1 | -1.8
C=CCn1c(SCC(=O)N2CCCc3ccccc32)nnc1-c1cc2cccc(OC)c2o1 | . | 1
O=C(C(c1ccccc1)N1Cc2ccccc2C1=O)N1CC=C(c2ccccc2)CC1 (configuration not stated) | . | -0.12
CCC(C)C(NC(=O)C(NC(=O)OCc1ccccc1)C(C)C)C(=O)O (configuration not stated) | -0.35 | .
O=C(CCC(=O)N1CCOc2ccc(Cl)cc21)NCc1cccs1 | -2.3 | -1.3
c1ccc(CN2CCN(C3CCCC3)CC2)cc1 | -2.7 | -0.91
O=c1c(SCc2ccc(F)cc2)nccn1-c1cccc(F)c1 | . | 0.46
CCC(O)c1nc2ccccc2n1CCOc1ccc(Cl)c(C)c1 (configuration not stated) | 0.24 | 1.7
CCOC(=O)N1CCN(c2nc3ccc(Cl)cc3n3cnnc23)CC1 | 0.97 | -0.18
CCN(CC)c1cc2c(cc1F)c(=O)c(S(=O)(=O)c1cc(C)ccc1C)cn2C | . | 0.93

At a glance, some entries already given.
canonical_smiles | CDC25B CDK2 inh | HIV TAR-Tat
O=c1c(SCc2ccc(F)cc2)nccn1-c1cccc(F)c1 | . | 0.46
CCC(O)c1nc2ccccc2n1CCOc1ccc(Cl)c(C)c1 (configuration not stated) | 0.24 | 1.7
CCOC(=O)N1CCN(c2nc3ccc(Cl)cc3n3cnnc23)CC1 | 0.97 | -0.18
CCN(CC)c1cc2c(cc1F)c(=O)c(S(=O)(=O)c1cc(C)ccc1C)cn2C | . | 0.93

(next part)
canonical_smiles | CDC25B CDK2 inh | HIV TAR-Tat
O=C(c1ccccc1)N1CCCN(c2c(Cl)cncc2Cl)CC1 | -2.2 | .
CN1CCN(c2cc(NC3CCCCC3)c3c4c(onc24)-c2ccccc2C3=O)CC1 | -1.5 | -4
COc1ccc(C(=O)CSc2nnc(-c3ccccc3)n2C)cc1 | -0.72 | 2.5
CC(C)(C)CC(=O)NCC(c1cccs1)S(=O)(=O)c1ccc(F)cc1 (configuration not stated) | . | 1.8
O=C(CCc1nc(CN2CCN(S(=O)(=O)c3cccs3)CC2)no1)N1CCCCC1 | . | -0.29
Cn1c(=O)c2c(nc(Cl)n2Cc2cccc(F)c2)n(C)c1=O | -2.9 | 0.74
CCN(CC)CCN(C(=O)c1ccco1)c1nc2cc3c(cc2s1)OCO3 | . | 2
CC1=C(C#N)C(c2ccc(C(F)(F)F)cc2Cl)C2=C(CCCC2=O)N1 (configuration not stated) | -1.3 | .
O=S1(=O)C[C@H](N2CCCC2)[C@@H](S(=O)(=O)c2ccc(F)cc2)C1 | -2.7 | 0.19
CCOC(=O)/C(C#N)=C/Nc1ccncc1 | -1.3 | .
CC(C)(C)C(=O)OCc1nc(-c2ccc3c(c2)OCO3)cs1 | 0.5 | .
CCN(CC)S(=O)(=O)c1cc(-c2n[nH]c(=O)c3c2CCCC3)ccc1C | -0.09 | -0.7
CCOc1cc(C2C(C(=O)OC(C)C)=C(C)NC3=C2C(=O)CCC3)cc(Br)c1O (configuration not stated) | -1.2 | 1.4
Cc1ccc(CNc2ncc(-c3ccc(F)cc3)n2C)cc1 | -1.9 | 2.4
COc1ccccc1-c1noc2ncnc(N3CCOCC3)c12 | . | 1.6
Cc1c(NN=C2C(=O)OC(C)(C)OC2=O)c(=O)n(-c2ccccc2)n1C | -2.4 | .

Source: PubChem BioAssay (Center for Chemical Genomics, University of Michigan)

Random draw from the library; overall some 0.9% were active at least once.
